pPAFAH inh: pPAFAH (human) enzyme inhibition; Q13093; recombinant pPAFAH, FP-rhodamine probe fluorescence polarization; inhibition, % at 3.39 µM; 330,000 tested, 1.5% active;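 active = inhibition above the mean inhibition across the screen plus 3 SD, cut at about 25% in these data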;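 also: inhibitors block binding of the rhodamine activity-based probe so polarization drops; 0% = enzyme with DMSO and 100% = wells lacking pPAFAH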
Target sequence (Q13093 whole entry, looked up): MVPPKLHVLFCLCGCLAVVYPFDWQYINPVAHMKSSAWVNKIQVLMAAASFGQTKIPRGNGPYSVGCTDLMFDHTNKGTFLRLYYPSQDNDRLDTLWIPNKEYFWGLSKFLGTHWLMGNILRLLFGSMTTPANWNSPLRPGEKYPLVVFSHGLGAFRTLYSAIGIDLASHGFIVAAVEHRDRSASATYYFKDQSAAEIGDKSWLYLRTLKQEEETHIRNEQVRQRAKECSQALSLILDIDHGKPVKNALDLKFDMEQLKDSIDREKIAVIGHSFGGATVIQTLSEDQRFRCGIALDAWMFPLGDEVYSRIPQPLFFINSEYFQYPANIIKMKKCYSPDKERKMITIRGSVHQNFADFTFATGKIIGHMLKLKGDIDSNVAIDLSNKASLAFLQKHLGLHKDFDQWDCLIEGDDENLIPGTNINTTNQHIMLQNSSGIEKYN
PAD4 FP inh: blocks human protein arginine deiminase 4. recombinant PAD4, RCA probe fluorescence polarization. 330,000 tested, 0.41% active. Q9UM07. inhibition, % at 6.36 µM;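 active = percent inhibition above a cutoff equal to the mean of all tested compounds plus 3 SD, cut at about 15% in these data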;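 also: 0% = PAD4 with RCA probe and DMSO and 100% = probe without PAD4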
LYPLA2 inh: LYPLA2 (human) inhibition in PME1 counter-screen; O95372; recombinant LYPLA2, FP-Rh probe fluorescence polarization; inhibition, % at 5.9 µM; 320,000 tested, 0.38% active;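 active = inhibition above the screen-wide mean plus 3 SD, limit set per campaign, cut at about 26% in these data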;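 also: 0% = LYPLA2 with DMSO and 100% = wells lacking LYPLA2 enzyme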
Target sequence (O95372 whole entry, looked up): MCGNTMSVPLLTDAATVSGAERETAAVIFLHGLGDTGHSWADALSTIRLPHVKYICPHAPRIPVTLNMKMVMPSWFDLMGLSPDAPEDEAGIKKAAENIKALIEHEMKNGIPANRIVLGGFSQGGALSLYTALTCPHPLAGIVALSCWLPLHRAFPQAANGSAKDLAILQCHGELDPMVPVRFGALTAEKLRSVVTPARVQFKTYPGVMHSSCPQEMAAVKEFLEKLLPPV
PAFAH2 FP inh: PAFAH2 (human) inhibition. Q99487. recombinant PAFAH2, FP-rhodamine activity probe, fluorescence polarization. inhibition, % at 3.39 µM. 340,000 tested, 0.99% active. AID 492956;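 active = inhibition above the mean over all tested compounds plus 3 SD, cut at about 30% in these data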;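 also: inhibitors block probe labeling of enzyme so polarization drops; 0% = enzyme with DMSO and 100% = wells lacking PAFAH2 protein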
LYPLA1 inh: LYPLA1 (human) inhibition in PME1 counter-screen; 320,000 tested, 0.16% active; inhibition, % at 5.9 µM; recombinant LYPLA1, FP-Rh probe fluorescence polarization;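 active = inhibition above the mean of all tested compounds plus 3 SD, set per campaign, cut at about 14% in these data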;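 also: inhibitors block serine hydrolase probe labeling of LYPLA1 so polarization falls; 0% = enzyme with DMSO and 100% = wells lacking LYPLA1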
PAFAH1B3 inh: blocks human PAF acetylhydrolase 1B catalytic subunit 3. Q15102. recombinant PAFAH1B3, FP-rhodamine probe, fluorescence polarization. inhibition, % at 3.39 µM. 340,000 tested, 0.28% active. AID 492972;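 active = inhibition above the screen-wide average of all tested compounds plus 3 SD, cut at about 25% in these data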;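 also: 0% = enzyme with DMSO only and 100% = wells lacking PAFAH1B3 protein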
Target sequence (Q15102 whole entry, looked up): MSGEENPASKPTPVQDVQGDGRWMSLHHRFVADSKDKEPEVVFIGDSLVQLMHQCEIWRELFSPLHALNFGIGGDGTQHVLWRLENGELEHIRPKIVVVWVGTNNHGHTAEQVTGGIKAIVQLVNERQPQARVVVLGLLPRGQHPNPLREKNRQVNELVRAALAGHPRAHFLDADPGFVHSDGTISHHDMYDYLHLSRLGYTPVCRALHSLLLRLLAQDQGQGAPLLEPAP
PREPL inh: inhibitors of human prolyl oligopeptidase-like enzyme PREPL. 320,000 tested, 0.68% active. recombinant PREPL, fluorescence polarization activity-based probe. inhibition, % at 5.96 µM; in the data active = inhibition above about 43%;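 also: 0% = enzyme with DMSO and 100% = wells lacking enzyme; many of its hits are not listed in these tables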
GSTO1 inh: GSTO1 inhibition, counter-screen for RBBP9 inhibitors. recombinant GSTO1, activity-based probe fluorescence polarization. inhibition, % at 5.96 µM. 300,000 tested, 1.1% active. AID 1974;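 active = inhibition above the campaign mean inhibition plus 3 SD, cut at about 35% in these data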;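 also: 0% = GSTO1-1 with DMSO and 100% = wells lacking GSTO1-1 enzyme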
Active calls of the source: *; . = no result given. Some of the compounds tested. The share of hits here may be higher or lower than overall.

#	Molecule	pPAFAH inh	PAD4 FP inh	LYPLA2 inh	PAFAH2 FP inh
1	O=C(Nc1ccc2c(c1)OCO2)c1cnn2cccnc12	5	0	3	6
2	Cc1ccc(SCc2cc(=O)n3[nH]c(C)nc3n2)cc1	2	-7	-4	-6
3	N=C1SCC(=O)N1c1ncc(Cc2cccc(Cl)c2)s1	.	.	.	12
4	CN1CCN(S(=O)(=O)c2cccc(S(=O)(=O)c3ccc(Cl)cc3)c2)CC1	0	3	3	9
5	CC1CCN(S(=O)(=O)c2ccc3ncn(CC(=O)N(C)Cc4ccccc4)c(=O)c3c2)CC1	-2	2	4	-2
6	COc1ccccc1C(=O)Nc1nnc(S(=O)(=O)N2CCC(C)CC2)s1	1	0	-4	1
7	CCN1C(=O)[C@H]2[C@H]3CN=C(SCc4ccc(Cl)cc4)N3[C@@](CC)(C(=O)OC)[C@H]2C1=O	4	0	.	-2
8	CCC(=O)C1CCCN(C(=O)CCc2nnc(C3(c4ccc(Cl)cc4)CCC3)o2)C1 (stereo unspecified)	-7	0	-9	-3
9	COc1cccc(CNC(=O)CCNC(=O)C2CCN(S(=O)(=O)c3ccccc3)CC2)c1	6	-1	0	9
10	COc1ccc(NC(=O)c2cccc(S(=O)(=O)N3CCCCC3)c2)c(OC)c1	6	0	4	9
11	Cc1ccc(OCCNC(=O)CCNC(=O)c2ccc(Cl)cc2)cc1	-2	-2	4	-6
12	Cc1ccc([C@@H]2CC=C(C(=O)O)[C@H](c3cccc(Cl)c3)N2S(=O)(=O)c2ccc(C)cc2)cc1	5	0	-13	-2
13	O=C(COC(=O)C1(c2ccc(F)cc2)CCCC1)NC1CC1	-4	-1	3	-5
14	Cc1n[nH]c(C)c1S(=O)(=O)NCCc1ccc(Cl)cc1	4	1	3	4
15	CCOCC(=O)Nc1ncc(S(=O)(=O)c2ccc([N+](=O)[O-])cc2)s1	-2	2	-6	-4

#	LYPLA1 inh	PAFAH1B3 inh	PREPL inh	GSTO1 inh
1	-2	-2	4	-8
2	-1	0	-1	0
3	.	8	.	.
4	-1	9	16	3
5	2	4	0	0
6	-2	-2	-7	-10
7	.	9	.	.
8	-1	10	18	5
9	-2	10	0	1
10	2	3	1	-11
11	1	9	-16	.
12	-5	-3	5	-107
13	3	8	6	-1
14	3	0	-17	7
15	4	4	1	4

Profiles, looked up by structure:
N=C1SCC(=O)N1c1ncc(Cc2cccc(Cl)c2)s1 as listed: pPAFAH inh: .; PAD4 FP inh: .; LYPLA2 inh: .; PAFAH2 FP inh: 12; LYPLA1 inh: .; PAFAH1B3 inh: 8; PREPL inh: .; GSTO1 inh: .
CCOCC(=O)Nc1ncc(S(=O)(=O)c2ccc([N+](=O)[O-])cc2)s1 as listed: pPAFAH inh: -2; PAD4 FP inh: 2; LYPLA2 inh: -6; PAFAH2 FP inh: -4; LYPLA1 inh: 4; PAFAH1B3 inh: 4; PREPL inh: 1; GSTO1 inh: 4

Other compounds
#	Molecule	pPAFAH inh	PAD4 FP inh	LYPLA2 inh	PAFAH2 FP inh
16	NS(=O)(=O)c1ccc(CCNC(=O)CSc2ccc(Cl)cc2)cc1	-2	10	3	3
17	O=C(O)CC/C(=C\c1ccc(Cl)c([N+](=O)[O-])c1)c1nc2ccccc2s1	20	-1	-4	12
18	Clc1ccc(OCc2nn3c(-c4ccco4)nnc3s2)cc1	5	-1	14	3
19	CSc1ccccc1NC(=O)COC(=O)CSc1ccc(C)cc1	19	-2	1	2
20	O=C(CS(=O)(=O)c1ccccc1)Nc1nnc(Cc2ccccc2)s1	4	-2	4	9
21	O=C(c1ccccc1NS(=O)(=O)c1ccc(Cl)cc1)N1CCc2ccccc21	-1	-2	7	7
22	CC(Oc1ccccc1)c1ccnn1S(C)(=O)=O (stereo unspecified)	2	4	-3	7
23	O=C(O)c1cccnc1SCC(=O)C12CC3CC(CC(C3)C1)C2	3	4	-6	9
24	Nc1cc(=O)[nH]c(SCCSc2ccc(F)cc2)n1	7	-1	-1	6
25	O=C(CCNC(=O)C1CCN(S(=O)(=O)c2ccc(F)cc2)CC1)NCc1ccc(Cl)cc1	-2	7	7	6
26	O=C(NCc1ccncc1)C(=O)Nc1nc(C23CC4CC(CC(C4)C2)C3)cs1	1	-4	-3	17
27	N#Cc1ccccc1OCC(=O)N1CCN(S(=O)(=O)c2ccc(Cl)cc2)CC1	3	4	5	1
28	Cc1ccc(S(=O)(=O)N2[C@@H](c3cccc(Cl)c3)C(C(=O)O)=CC[C@H]2c2ccc(Cl)c(Cl)c2)cc1	7	-5	-5	13
29	C/C(=C\C(=O)O)C12CC3CC(CC(C3)C1)C2	3	-4	0	17
30	Cc1snc(SCC(=O)N/N=C(\N)COc2ccc(F)cc2)c1C#N	0	7	3	-2

#	LYPLA1 inh	PAFAH1B3 inh	PREPL inh	GSTO1 inh
16	-5	0	-8	2
17	6	6	8	7
18	1	7	3	5
19	-1	15	19	-7
20	5	5	2	7
21	3	4	-6	3
22	2	5	0	3
23	-3	5	-13	6
24	-3	4	-11	-5
25	-2	9	14	6
26	1	1	4	-2
27	2	-2	9	.
28	-9	-4	-5	-207
29	3	5	3	3
30	2	4	-22	4

The list continues:
#	Molecule	pPAFAH inh	PAD4 FP inh	LYPLA2 inh	PAFAH2 FP inh
31	COc1ccc(-n2cnnc2SCC(=O)Nc2cccc(S(=O)(=O)N3CCCCC3)c2)cc1	1	4	1	-12
32	O=C(COC(=O)CCSc1ccc(Cl)cc1)NCc1ccc(Cl)cc1	13	0	10	-3
33	O=C(CCSCc1ccc(Cl)cc1)NCCc1ccccc1	18	5	3	3
34	Cc1ccc(S(=O)(=O)NC(Cc2c[nH]c3ccccc23)C(=O)O)cc1 (stereo unspecified)	5	3	0	11
35	Cc1cc(C)cc(C(=O)NCC(=O)OCC(=O)Nc2ccc(C)cc2Br)c1	9	-3	3	6
36	Cc1ccc(S(=O)(=O)CCSc2cccc(C(=O)Nc3ccccc3C(=O)O)c2)cc1	-12	19*	2	11
37	COc1ccc(CNc2ccc(C(=O)O)cc2)cc1	-2	-3	6	-7
38	Cc1ccc([C@@H]2CC=C(C(=O)O)[C@H](c3cccc(F)c3)N2S(=O)(=O)c2ccccc2C)cc1	6	-4	.	5
39	COC(=O)C(=O)Nc1nnc(COc2ccccc2)s1	1	-2	3	-3
40	CCOC(=O)c1cnn(-c2nc(-c3ccccc3F)cs2)c1C(F)(F)F	1	3	-8	1
41	Cc1ccc(SCc2cc(=O)[nH]c(N3CCOCC3)n2)cc1	2	0	2	-3
42	COc1ccc(S(=O)(=O)NNC(=O)C23CC4CC(CC(C4)C2)C3)cc1[N+](=O)[O-]	-4	-2	-3	6
43	O=C(O)c1cc(-c2cccs2)nn1-c1cccc(Cl)c1	9	-7	1	-1
44	COc1cccc(/C=C/C(=O)OCC(=O)NCCNC(=O)COC(=O)/C=C/c2cccc(OC)c2)c1	4	0	1	-1
45	S=c1nn[nH]n1C12CC3CC(CC(C3)C1)C2	4	-5	-2	14

#	LYPLA1 inh	PAFAH1B3 inh	PREPL inh	GSTO1 inh
31	-3	7	8	9
32	1	0	-13	11
33	2	8	-34	6
34	2	1	20	-3
35	-1	10	-12	-8
36	-4	-4	-4	-42
37	2	6	-1	-1
38	.	6	5	.
39	4	-4	17	6
40	-2	10	-3	-3
41	7	-1	18	-1
42	-1	10	0	13
43	5	7	-7	6
44	1	0	10	.
45	-1	4	0	-1

Remaining list, next part:
#	Molecule	pPAFAH inh	PAD4 FP inh	LYPLA2 inh	PAFAH2 FP inh
46	O=C(O)CC(Cc1ccccc1)C(=O)NCC12CC3CC(CC(C3)C1)C2 (stereo unspecified)	0	-1	-5	10
47	N#Cc1ccc(CSc2nnc3[nH]c(=O)cc(N)n23)cc1	9	-6	9	-2
48	C[C@@H]1[C@H]2CCCC[C@H]2CN(C(=O)OC(C)(C)C)[C@@H]1CC(=O)c1ccccc1	4	-3	.	-1
49	N#Cc1c(N2C(=O)Nc3ccccc3N2O)sc2c1CCCCCC2	7	0	3	1
50	CN1CCN(C(=O)c2ccc(CSc3ccc(Cl)cc3)cc2)CC1	3	-3	-2	6
51	CC(C)c1ccc(NC(=O)CCNS(=O)(=O)c2cc(Br)cnc2N)cc1	0	1	3	6
52	Cc1ccc2cc(CCNC(=O)CCCc3ccccc3)c(=O)[nH]c2c1	8	-4	2	2
53	CC(C)c1nnc(NC(=O)CCC(=O)NCCc2ccccc2)s1	3	4	4	-3
54	O=C(O)CNC(=O)CC12CC3CC(CC(C3)C1)C2	-4	3	2	6
55	Nc1ncc(S(=O)(=O)c2ccc(Cl)cc2)c(N)n1	3	2	3	-2
56	Cc1cccc(C(=O)Nc2nnc(S(=O)(=O)N3CCC(C)CC3)s2)c1	8	2	-2	-4
57	CC(C)c1ccc(NC2CCCN(C(=O)c3cc(C(C)C)[nH]n3)C2)cc1 (stereo unspecified)	.	.	.	-6
58	Cc1ccc(SCC(=O)NCCSC(C)(C)C)cc1	4	1	-10	2
59	CC(C)(CNC(=O)/C=C/c1ccc(F)cc1)CNC(=O)/C=C/c1ccc(F)cc1	-3	-1	-16	-6
60	CCOC(=O)c1cnn(-c2nc(-c3ccc(F)cc3)cs2)c1C(F)(F)F	-3	-1	-2	-7
61	O=C(CCCNC(=O)c1ccc(Cl)cc1)Nc1ccc(Br)cc1	1	-2	-2	-4
62	O=C(CSc1ccc(Cl)cc1)NCc1ccco1	3	5	6	0
63	COCCNC(=O)CCc1nnc(C2(c3ccc(Cl)cc3)CCC2)o1	5	-4	2	-1

#	LYPLA1 inh	PAFAH1B3 inh	PREPL inh	GSTO1 inh
46	-1	2	-7	3
47	3	3	8	-28
48	.	3	.	.
49	4	8	-1	-17
50	2	5	17	4
51	-2	-2	4	1
52	1	5	-10	0
53	1	10	20	-8
54	0	-1	13	7
55	-1	8	7	1
56	-9	-1	3	-114
57	.	7	.	.
58	2	1	4	4
59	-10	-1	7	-7
60	-2	6	6	3
61	0	13	-17	2
62	1	5	-2	9
63	2	0	0	-7
